Assay outcomes (PubChem BioAssay)
MLL AF4-AF9 inh: blocks AF4 peptide binding to human AF9; P42568; 0.47% of 350,000 active; inhibition, % at 10 µM; AlphaScreen, biotin-AF4 peptide binding to FLAG-AF9;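 active = every replicate reaching a set inhibition limit, whatever the replicate mean, cut at about 25% in these data; inconclusive = mean inhibition reaches that limit but some replicates miss it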;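 also: 0% = plate neutral control median and 100% = total signal loss; the record names both 10 and 1 µM as test concentration; the first replicate is given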
rRNA inh HTS: inhibitors of bacterial rRNA selective over humanized ribosomes; E. coli WT GFP vs humanized-ribosome RFP mutants, fluorescence, 24 h; hits give low values; DMSO median 0, no signal -100; GFP signal change (wild-type ribosome), % (no concentration beside the values); 1.6% of 350,000 active; AID 720706;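 active = significant combined selectivity score with lowered wild-type GFP, culture density cut under 30%, mutant RFP and density less affected; inactive = any of these conditions unmet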; also: one replicate is shown; some compounds called inactive have numbers as strong as hits
RanGTP-Impb inh: disruptors of Ran-importin-beta complex formation – biochemical, FRET, CFP-Ran, YFP-importin-beta, homogeneous, primary screen; cell-free CFP-Ran/YFP-importin-beta FRET ratio; inhibition, % (no concentration beside the values); 1.1% of 300,000 active;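 active = most replicates above 15%; inconclusive = exactly half above 15%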;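 also: 0% = DMSO wells and 100% = Ran loaded with GDP instead of GTP; wells of about 40 µL received 100 nL stock; the first replicate is given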
Calb FLC: affects C. albicans growth with fluconazole | C. albicans CaCi-2 (fluconazole-resistant clinical isolate) + fluconazole, Alamar Blue growth, 48 h | growth inhibition, % (test concentration not listed) | 0.57% of 300,000 active;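 active = most replicates above 75%; inconclusive = exactly half above 75%; inactive = most below 75%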;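 also: all wells also contain fluconazole at 8 µg/ml as a sub-toxic cotreatment; 0% = median of DMSO wells and 100% = median of geldanamycin control wells; wells of about 8 µL received 7.5 nL stock; the first replicate is given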
ALR H2O2 inh: human ALR oxidase inhibition via reduced H2O2. AID 485317. purified ALR, DTT oxidation, H2O2 HRP-luminol luminescence. 3.8% of 290,000 active. P55789. inhibition, % (test concentration not listed);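 active = mean and each replicate at 75% or more; inconclusive = only one of the two met; inactive = neither met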;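 also: stock transfer was 7.5 nL into about 7.5 µL; 0% = neutral wells and 100% = wells with inactivated enzyme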
Target sequence (P55789 whole entry, looked up): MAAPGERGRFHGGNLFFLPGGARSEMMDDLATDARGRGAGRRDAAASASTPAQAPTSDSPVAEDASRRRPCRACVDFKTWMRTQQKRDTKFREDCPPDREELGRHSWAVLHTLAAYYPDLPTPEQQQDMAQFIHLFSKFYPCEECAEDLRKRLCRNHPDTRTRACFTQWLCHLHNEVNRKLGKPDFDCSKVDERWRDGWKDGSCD
FGF22 binding: FGF22 (human) thermal shift binding; Q9HCT0; 1.5% of 340,000 active; recombinant FGF22 thermal shift, SYPRO orange fluorescence; percent of sucrose octasulfate shift, DMSO zero; calls only at 9.99 µM; AID 651658;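 active = melting point raised past a set limit in the mean and every replicate; inconclusive = no clear call; three in four hits are not shown here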
Target sequence (Q9HCT0 whole entry, looked up): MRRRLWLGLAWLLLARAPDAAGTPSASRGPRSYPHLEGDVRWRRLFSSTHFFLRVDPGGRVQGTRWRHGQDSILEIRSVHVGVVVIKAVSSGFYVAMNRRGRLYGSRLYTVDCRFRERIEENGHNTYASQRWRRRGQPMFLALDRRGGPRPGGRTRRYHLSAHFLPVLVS
T cruzi inh: blocks replication of Trypanosoma cruzi | 1.4% of 300,000 active | T. cruzi beta-gal in NIH3T3, luminescence, 90 h | inhibition, % (concentration not given with the values);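 active = mean inhibition across valid replicates above about 55%, limit read from the data; inconclusive = mean below that limit but half or more replicates reach it; inactive = mean below it, under half of replicates reach it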;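 also: signal also drops with host cell toxicity which is not excluded here; 0% = plate median of DMSO wells and 100% = zero luminescence signal; higher percent means less beta-gal luminescence so fewer parasites; stock transfer was 50 nL into about 50 µL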
Beta apoptosis: blocks beta cell apoptosis; INS-1E cytokine-induced death, ATP luminescence, 48 h; percent of positive-control rescue, neutral wells zero; protection from apoptosis, % (no concentration beside the values); 0.8% of 300,000 active; AID 435005;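 active = all replicates at 75% or more, or half of them and the mean; inconclusive = half reach 75% but not the mean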;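 also: 0% = cytokine-treated negative control wells and 100% = positive control rescue; higher means more ATP so stronger rescue from cytokine killing; wells of about 40 µL received 100 nL stock; the first replicate is given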
rRNA inh HTS OD600: recorded beside rRNA inh HTS, whose call it bears; OD600 change, %; measured here: OD600 growth;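 optical density of the mix in the first replicate; 0 = DMSO median and -100 = no signal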
rRNA inh HTS RFP: second read-out of rRNA inh HTS, no call of its own (marks repeat the call); RFP signal change, %; measured here: RFP humanized mutant strains;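 first replicate; 0 = DMSO median and -100 = no signal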
* marks the source's active call; other numbers are inactive results; i = inactive; ? = inconclusive; · = not tested or not shown; + = active, no number. The list is partial (hit frequency here may not be typical).

SMILES	MLL AF4-AF9 inh	rRNA inh HTS	rRNA inh HTS OD600	rRNA inh HTS RFP	RanGTP-Impb inh	Calb FLC	ALR H2O2 inh	FGF22 binding	T cruzi inh	Beta apoptosis
O=C(O)C1CCCN1S(=O)(=O)c1cccc2nsnc12 (stereo not drawn)	-1.1	10.3	5.6	-0.8	4.2	3.2	-6.3	·	-27.5	-0.3
O=C1c2ccccc2C(=O)N1CCCCN(C(=O)c1cc2ccccc2oc1=O)c1ccc(Cl)cc1	·	·	·	·	?	-1.8	-4.3	·	13.8	6.8
O=C(O)c1ccccc1Nc1ccc([N+](=O)[O-])cc1	-63.0	1.4	-6.0	-4.6	1.2	2.9	9.1	+	-4.2	2.8
NC(=O)c1ccsc1NC(=O)COc1ccccc1	4.8	-16.7	-3.0	17.1	-0.4	-13.0	-4.2	i	-2.3	5.5
COc1cc(-c2nc3ccccn3c2/N=C/c2cc(OC)c(O)cc2Cl)ccc1O	9.9	-1.4	-3.2	-0.3	7.9	-3.9	94.3*	i	-9.2	·
CC(=O)c1cccc(NC(=O)Cc2coc3cc4c(cc23)CCC4)c1	·	·	·	·	-1.4	?	-3.8	·	9.9	0.2
CC(=O)N1C2CCCCC2S[C@H]2CCCCC21 (stereo partly drawn)	·	·	·	·	-1.4	-5.8	-15.0	·	-13.1	-6.3
CC(C)=CC(=O)OCC(=O)Nc1cc(C)ccc1C	-0.9	13.2	27.9	1.4	7.2	8.9	-2.9	i	-4.3	-2.4
N#Cc1c(NC(=O)CSc2nnc(-c3ccncc3)n2CC2CCCO2)sc2c1CCCC2 (stereo not drawn)	·	·	·	·	1.4	8.4	3.5	·	3.0	4.1
CC(=O)NC1C2CN3CCN(C2)CC1(Cc1ccccc1)C3 (stereo not drawn)	·	·	·	·	7.6	-4.9	·	·	-10.3	-2.6
O=C1CCC(C(=O)N2CCCO2)CN1Cc1cccc(C(F)(F)F)c1 (stereo not drawn)	-0.9	0.5	8.8	2.9	-1.5	-0.6	·	i	3.8	·
COc1ccc(CCc2nnc(CCC(=O)NCc3cnc4ccccn34)o2)cc1	-2.8	12.9	13.2	-2.5	?	-1.6	-26.2	i	-6.2	-0.7
O=C(c1ccc(S(=O)(=O)NCC2CCCO2)cc1)N1CCN(c2cccc(Cl)c2)CC1 (stereo not drawn)	-0.5	-19.4	-18.4	-6.4	-1.0	6.4	·	i	5.6	·
Cc1ccc(S(=O)(=O)N2CCCCC2)cc1NC(=O)c1ccc2c(c1)OCO2	0.0	-6.4	-4.3	3.1	0.4	13.9	-2.8	i	-2.2	-3.0
Cc1ccc(S(=O)(=O)NCC(C)n2cncn2)cc1C (stereo not drawn)	-3.3	5.8	4.8	-1.0	?	-0.2	-1.8	i	-0.3	-0.3
COc1ccccc1NC(=O)N1CCCC1C(=O)NCc1ccc2c(c1)OCO2 (stereo not drawn)	·	·	·	·	0.9	-5.2	-2.6	·	1.2	-3.7
Cc1ccc(N2C(=O)CC(c3c[nH]c4ccccc34)C2=O)cc1 (stereo not drawn)	4.4	-14.8	-17.4	-2.2	-7.0	4.1	-10.7	i	-11.1	-4.0
COc1ccc(-c2noc(N3CCC(C(=O)NCc4ccc(Cl)cc4)CC3)n2)cc1	6.7	-1.1	11.5	2.2	2.9	-7.4	-16.0	i	21.0	14.8
O=C(CN1C(=O)C2CCCCC2C1=O)Nc1cc(C(F)(F)F)ccc1N1CCCC1 (stereo not drawn)	2.6	4.4	-5.6	4.3	·	-12.3	48.5	i	-9.8	-3.6
O=C(Nc1ccc(S(=O)(=O)Nc2ncccn2)cc1)C12CC3CC(CC(C3)C1)C2	-1.5	2.3	7.2	2.5	-1.3	-4.8	-1.8	i	-8.8	-6.3
CCCCn1c(N)c(N(CCOC)C(=O)CN(C)S(=O)(=O)c2ccc(C)cc2)c(=O)[nH]c1=O	-1.8	7.9	8.9	0.1	3.2	-7.6	-1.7	i	-1.9	-8.2
CC1CN(C(=O)COc2ccc3ccccc3c2Br)CC(C)O1 (stereo not drawn)	-3.8	-37.3	-42.6	-5.3	?	-4.6	-4.7	i	6.1	-2.0
CCNC(=S)N1CCN(c2ccccn2)CC1	-1.8	7.6	10.8	0.9	-1.4	-13.3	-1.5	i	0.9	-10.9

By substructure, the compounds so far containing a halogen.
SMILES	MLL AF4-AF9 inh	rRNA inh HTS	rRNA inh HTS OD600	rRNA inh HTS RFP	RanGTP-Impb inh	Calb FLC	ALR H2O2 inh	FGF22 binding	T cruzi inh	Beta apoptosis
O=C1c2ccccc2C(=O)N1CCCCN(C(=O)c1cc2ccccc2oc1=O)c1ccc(Cl)cc1	·	·	·	·	?	-1.8	-4.3	·	13.8	6.8
COc1cc(-c2nc3ccccn3c2/N=C/c2cc(OC)c(O)cc2Cl)ccc1O	9.9	-1.4	-3.2	-0.3	7.9	-3.9	94.3*	i	-9.2	·
O=C1CCC(C(=O)N2CCCO2)CN1Cc1cccc(C(F)(F)F)c1 (stereo not drawn)	-0.9	0.5	8.8	2.9	-1.5	-0.6	·	i	3.8	·
O=C(c1ccc(S(=O)(=O)NCC2CCCO2)cc1)N1CCN(c2cccc(Cl)c2)CC1 (stereo not drawn)	-0.5	-19.4	-18.4	-6.4	-1.0	6.4	·	i	5.6	·
COc1ccc(-c2noc(N3CCC(C(=O)NCc4ccc(Cl)cc4)CC3)n2)cc1	6.7	-1.1	11.5	2.2	2.9	-7.4	-16.0	i	21.0	14.8
O=C(CN1C(=O)C2CCCCC2C1=O)Nc1cc(C(F)(F)F)ccc1N1CCCC1 (stereo not drawn)	2.6	4.4	-5.6	4.3	·	-12.3	48.5	i	-9.8	-3.6
CC1CN(C(=O)COc2ccc3ccccc3c2Br)CC(C)O1 (stereo not drawn)	-3.8	-37.3	-42.6	-5.3	?	-4.6	-4.7	i	6.1	-2.0
